# Vaccinia mCherry = vaccinia inhibition (mCherry reporter). Vaccinia virus mCherry reporter infection, fluorescence; about a quarter of the inactives have no number. Potency, µM (highest dose often 36.5 µM), for the others: top-dose activity change, negative = inhibition, hits mostly inhibitors. actives 0.63% (n = 310,000). AID 720579; active = well fitted inhibition curve with a large enough effect; inconclusive = small, poorly fitted or top-dose-only effect; inactive = no such curve, though single readings can be large or run the other way; tested in A549 cells; also: nearly all actives have a fitted effect of over 35% in size; inactives centre near -10
# VACV Venus inh = inhibitors of vaccinia virus (Venus reporter). Vaccinia virus Venus reporter expression, fluorescence. Potency, µM (titrated, usually from 36.5 µM), for inactives: top-dose activity change, negative = inhibition, most hits filed as inhibitors. actives 0.46% (n = 330,000). AID 720580; active means well fitted inhibition curve with a large enough effect; inconclusive means small, poorly fitted or top-dose-only effect; inactive means no such curve, though single readings can be large or run the other way; tested in A549 cells; also: nearly all actives have a fitted effect of over 30% in size; inactives centre near -10
# An asterisk follows results filed as active; i = inactive; ? = inconclusive; · = no result given; & = joins results of further samples; [ ] = dose if it differs, or a comment. % is scaled to controls: 0 for no effect and ±100 for the full control effect; potency is read from the fitted curve at half-maximal effect.
# Each structure is followed by: Vaccinia mCherry | VACV Venus inh
> CC1=C(C(=O)Nc2ccc(C)cc2C)C(c2cccc([N+](=O)[O-])c2)n2nc(C(=O)OC(C)C)nc2N1 (configuration not stated)
→ -8% | -2%
> Cc1cccc(C(=O)NCCCNC(=O)c2cccnc2)c1
→ -5% | 2%
> NCCN1CCN(CCN)CC1
→ -12% | 16%
> CN(CC(=O)Nc1ccccc1Br)C(=O)c1cccc(S(=O)(=O)N2CCc3ccccc32)c1
→ -13% | -20%
> COc1cccc(NC(=O)C2CCCN(c3nnc(-n4c(C)ccc4C)s3)C2)c1 (configuration not stated)
→ -18% | -16%
> O=C(OCc1c(-c2ccccc2)ncc2ccccc12)c1ccco1
→ -8% | -17%
> O=C(c1ccccc1)c1cccs1
→ i | -10%
> C[C@H]1CN([C@@H](C)CO)S(=O)(=O)c2ccc(Br)cc2O[C@@H]1CN(C)C(=O)C1CCOCC1
→ -25% | -17%
> Cc1cccc(CC(=O)Nc2ccon2)c1
→ i | -28%
> Cc1nc2ncnn2c(C)c1C/C=C/c1ccccc1
→ i | -6%
> N#CCSc1nnc(N)s1
→ · | -9%
> Cc1ccc(C(=O)CSc2nnnn2Cc2ccccc2)cc1C
→ -15% | -11%
> COC(=O)CCC(=O)Nc1ccc(NC(=O)CCC(=O)OC)cc1
→ · | -13%
> O=C(CN1CCCCCC1)NN(Cc1ccccc1)c1ccccc1
→ -9% | -6%
> Cc1n[nH]c(=S)n(/N=C/c2cccc([N+](=O)[O-])c2)c1=O
→ i[7.34 µM] | -7%[7.34 µM]

# Full records as entered above. Order of screens: Vaccinia mCherry | VACV Venus inh
# Listed for NCCN1CCN(CCN)CC1 = -12% | 16%
# Listed for Cc1cccc(CC(=O)Nc2ccon2)c1 = i | -28%
# Listed for Cc1ccc(C(=O)CSc2nnnn2Cc2ccccc2)cc1C = -15% | -11%
# Listed for COc1cccc(NC(=O)C2CCCN(c3nnc(-n4c(C)ccc4C)s3)C2)c1 (configuration not stated) = -18% | -16%
# Listed for O=C(c1ccccc1)c1cccs1 = i | -10%

# Next section.
# Each structure is followed by: Vaccinia mCherry | VACV Venus inh
> COc1cccc(-n2c(=O)n(Cc3ccccc3)c(=O)c3[nH]cnc32)c1C
→ -19% | -1%
> COc1cccc(-c2noc(-c3cccnc3)n2)c1
→ -13% | -8%
> O=C(Nc1ccc(S(=O)(=O)Nc2ccccn2)cc1)C(F)(F)F
→ -21% | -6%
> O=C(Nc1ccc(CN2CCOCC2)cc1)c1ccco1
→ -7% | 2%
> COc1ccc(NC(=O)CSc2nnc(-c3cc(C)[nH]n3)n2N)cc1
→ -14% | -7%
> O=C(NCCCN1CCCCCC1)C(c1ccccc1)C1CCCCC1 (configuration not stated)
→ -9% | -25%
> CC1CCc2c(sc(NC(=O)CCCOc3ccccc3)c2C(N)=O)C1 (configuration not stated)
→ -14% | -10%
> CCOC(=O)c1c(Nc2cccc(O)c2)nnc(-c2ccccc2)c1-c1ccccc1
→ -7% | -10%
> CC(=O)Nc1cc(-c2cccc(NS(C)(=O)=O)c2)cn2c(-c3cccc(C(F)(F)F)c3)cnc12
→ ? | -21%
> O=C(c1cnn2ccccc12)N1CCCc2ccccc21
→ i | -12%
> CCC(=O)N1CCCc2cc(S(=O)(=O)N3CCC(C(=O)NC4CCCCC4)CC3)ccc21
→ -12% | -4%
> CCc1ccc(C(O)c2ncc(-c3ccccc3F)[nH]2)cc1 (configuration not stated)
→ 2% | -12%
> O=C(NC1CC1)c1sc2cc([N+](=O)[O-])ccc2c1Cl
→ i | -11%
> Cc1nn(-c2ccccc2)c2c1N(CC(=O)N1CCN(c3ccc(F)cc3)CC1)C(=O)CS2
→ -8% | -3%
> CCC1(C2CCN(C(=O)c3ccccc3Cl)CC2)NC(=O)N(CCc2scnc2C)C1=O (configuration not stated)
→ i | -14%

# Carrying on:
# Each structure is followed by: Vaccinia mCherry | VACV Venus inh
> CC(CC(C)C(=O)Nc1ccccc1C(C)(C)C)C(=O)O (configuration not stated)
→ · | -5%
> Cc1ccc(-n2c(N)c(S(=O)(=O)c3ccccc3)c3nc4ccccc4nc32)cc1
→ i | 5%
> C[N+]1(C)C2CCC1CC(OC(=O)C(O)c1ccccc1)C2 (configuration not stated)
→ i | -17%
> CC(Oc1ccc(F)cc1)C(=O)Nc1cc(-c2ccc(F)c(F)c2)no1 (configuration not stated)
→ -12% | -10%
> Nc1nc2ncc(C(=O)c3cc(F)ccc3O)cc2s1
→ -21% | -9%
> COC(=O)C[C@H]1C[C@@H]2c3cc(NC(=O)Nc4ccccc4)ccc3O[C@@H]2[C@@H](CO)O1
→ 0% | -12%
> CCCn1c(C(CO)Nc2nc(C)cs2)nc2ccccc21 (configuration not stated)
→ i | -1%
> CC(C)OC(=O)CSc1nnc(COc2ccc([N+](=O)[O-])cc2)n1C
→ 0% | -13%
> COc1ccc(C(=O)NCC(=O)OCc2ccc(F)cc2)cc1
→ -1% | -2%
> CCOC(=O)c1sc2ccccc2c1S(=O)(=O)N1CCN(c2ccccc2F)CC1
→ -10% | -4%
> CC(C)(C)C1CCC(OCC(O)CN2CCN(c3ccccn3)CC2)CC1 (configuration not stated)
→ -20% | -23%
> COc1ccc(N(C(=O)c2cnccn2)C(C(=O)NC2CCCCC2)c2ccc(Cl)cc2)cc1 (configuration not stated)
→ -12% | -3%
> CCOC(=O)N1CCN(C(=O)COc2cccc3c2CCN(Cc2cccc(C)c2)C3=O)CC1
→ -17% | -29%
> CC(=O)Nc1ccc(NC(=O)C2CCCN2C(=O)Nc2cccc(F)c2)cc1 (configuration not stated)
→ -22% | -11%
> Cc1ccc(OC(C)C(=O)Nc2ccc(S(=O)(=O)N3CCOCC3)cc2)cc1 (configuration not stated)
→ -12% | -6%

# More structures follow:
# Each structure is followed by: Vaccinia mCherry | VACV Venus inh
> O=C(O)C1CC=CCC1C(=O)Nc1ccccc1C(=O)N1CCN(c2ccc(Cl)cc2)CC1 (configuration not stated)
→ 3% | 0%
> Cc1ccccc1Oc1cc(NC(=O)Cn2cnc([N+](=O)[O-])c2)cc([N+](=O)[O-])c1
→ ? | ?
> Cc1cc(C)n(-c2ccc(C(=O)Nc3cccc(S(=O)(=O)N(C)C)c3)cc2)n1
→ -17% | -26%
> CCOc1ccc(C(=O)N2CCN(CCc3ccccc3)CC2)cc1OCC
→ -23% | -8%
> C[C@@H]1CN([C@H](C)CO)C(=O)CCCn2nncc2CO[C@H]1CN(C)Cc1ccc(-c2ccccc2)cc1
→ -2% | -14%
> CN(Cc1ccc(F)cc1)C(=O)c1cccc(OC2CCN(C3CCCC3)CC2)c1
→ i | -10%
> CCOc1ccc(C(C)=O)cc1COC(=O)c1ccccc1C(=O)N(C)Cc1ccccc1
→ i | -15%
> CCN(CC)C(=O)c1[nH]cnc1C(=O)N[C@@H](Cc1ccccc1)C(=O)OC(C)(C)C
→ -5% | -17%
> C=CCn1c(C)cc(C(=O)COC(=O)[C@@H](NC(=O)c2ccccc2Cl)C(C)C)c1C
→ -22% | -13%
> O=c1[nH]c(=O)n(Cc2ccco2)c(O)c1C=NCc1ccco1
→ -12% | -2%
> COc1ccc(-c2nc(C)c(CCNC(=O)c3cccs3)s2)cc1
→ -3% | -8%
> COc1ccc(S(=O)(=O)n2ccnc2)c2cccnc12
→ -11% | 2%
> O=C(Nc1ccc(N2CCOCC2)c(F)c1)c1cccs1
→ i | -4%
> COc1ccc(C2c3c(c(C)c(C)oc3=O)Oc3c(C)c(C)oc(=O)c32)cc1
→ i | -1%
> Cc1ccc(NC(=O)CSc2n[nH]c(-c3ccccn3)n2)cc1
→ 10µM* | ?

# (continued)
# Each structure is followed by: Vaccinia mCherry | VACV Venus inh
> COc1cc(CNS(=O)(=O)CCl)cc(OC)c1OC
→ -1%&-20% | -13%&-17%
> COc1ccccc1N(C)S(=O)(=O)c1ccc(C(=O)NCCc2ccc(F)cc2)cc1
→ -22% | -8%
> O=S(Cc1ccc(Br)cc1)Cc1nnc(SCc2c(Cl)cccc2Cl)n1-c1ccccc1 (configuration not stated)
→ ? | ?
> Cc1ccc(N/C=C(\C#N)S(=O)(=O)c2ccccc2)cc1
→ -2% | -11%
> Fc1ccc(Nc2ncnc3ccccc23)cc1
→ i | -11%
> CCCCC(=O)NC(NC(=O)CCCC)c1ccc(OCC(C)C)c(OC)c1
→ -19% | -20%
> O=S(=O)(Nc1ccc(C(O)(C(F)(F)F)C(F)(F)F)cc1)c1cccc2cccnc12
→ 14% | -7%
> CCOC(=O)CNC(=O)CSc1nnc(-c2cccc(C)c2)n1-c1ccc(OC)cc1
→ · | -6%
> O=C(c1ccccc1)N1N=C(c2ccccc2)CC1c1ccc2nccnc2c1 (configuration not stated)
→ i | -10%
> CCOC(=O)Cc1cc(=O)[nH]n(-c2ccccc2)c1=O
→ i | -25%
> C[C@@]12C(=O)N(c3ccc(F)cc3)C(=O)N1[C@@H]1c3ccccc3OC[C@@H]1[C@H]2c1ccccc1
→ -3% | -11%
> CN=C1SC(CC(=O)Nc2sc(C)c(C)c2C(=O)OC)C(=O)N1C (configuration not stated)
→ i | -11%
> CC(=O)NC12CC3CC(C1)CC(C(=O)Nc1c(C)n(C)n(-c4ccccc4)c1=O)(C3)C2
→ -1% | -19%
> CCN(CCO)Cc1csc2ccc(C(C)(C)C)cc12
→ -14% | -19%
> CCn1ccnc1CN(C)Cc1nc(-c2ccccc2)no1
→ -4% | -7%

# Further records:
# Each structure is followed by: Vaccinia mCherry | VACV Venus inh
> CCOc1ccc(S(=O)(=O)N2CCC(C(=O)NCC3CCCO3)CC2)cc1C (configuration not stated)
→ ? | -23%
> O=C(NCc1cccnc1)c1cc(C2CCCCN2S(=O)(=O)Cc2ccccc2)on1 (configuration not stated)
→ 7% | 5%
> CCCc1ccc(OC(=O)c2cccs2)cc1
→ i | -3%
> Cc1ccc(NC(=O)CSc2nc(=O)n(CCCN3CCOCC3)c3c2CCCC3)cc1
→ -30% | -17%
> COc1ccc(C)cc1S(=O)(=O)N(C)CC(=O)NC1CCCC1
→ 0% | -5%
> COc1ccc(C(=O)n2nc(C)c(Br)c2C)cc1OC
→ i | -16%
> O=C(O)Cn1cc2c(n1)CCCCC2
→ -11%[1.46 µM] | -12%
> COc1cc(N)ccc1C(=O)O
→ -13% | 0%
> COC(=O)C1=C(c2ccc(F)cc2F)C[C@@H]2CC[C@H]1N2C(=O)NCc1ccc2c(c1)OCO2
→ i | -5%
> CCN1C(=O)C(NC(C)=O)c2cc(Br)ccc21 (configuration not stated)
→ · | -14%
> O=C(COc1cccc(OC(F)F)c1)Nc1ccc(SC(F)F)cc1
→ · | -18%
> Cc1ccc2[nH]c(=O)c(CN(CCCO)Cc3nnnn3Cc3ccccc3)cc2c1
→ -4% | -23%
> Cc1ccc(NC(=O)c2ccc3c(c2)[nH]c(=O)n3C(C)C)cc1
→ -25% | -14%
> Cc1ccc(-c2nc3ccccc3s2)cc1NC(=S)NC(=O)/C=C/c1ccco1
→ · | -14%
> CCOC(=O)C1=C(C)NC(=S)NC1c1ccc(-c2cccc(Cl)c2C)o1 (configuration not stated)
→ · | ?

# Remaining list, next part:
# Each structure is followed by: Vaccinia mCherry | VACV Venus inh
> Nc1nc(SCc2ccccc2)c2ncn(Cc3ccccc3)c2n1
→ -20% | ?
> CCOC(=O)C1CCCN(c2c(NCC3CCCN3CC)c(=O)c2=O)C1 (configuration not stated)
→ i | -12%
> CCCn1nnc(NC(=O)/C=C/c2cc(Br)ccc2OC)n1
→ i | -5%
> N[C@@]1(C(=O)O)CN[C@@H](C(=O)O)C1
→ -3% | -16%
> CCN1CCN(S(=O)(=O)c2cccc([N+](=O)[O-])c2)CC1
→ · | -14%
> COc1ccc(CC(=O)Nc2nnc(C(C)(C)C)s2)cc1OC
→ -16% | -12%
> O=C(Cc1cccs1)Nc1ccc(F)cc1F
→ i | 0%
> Cc1cc(C(=O)COC(=O)c2cccc(O)c2)c(C)n1C1CC1
→ -26% | -5%
> CCn1nc(C)c(/C=N/NC(=O)CSc2ccccn2)c1C
→ -14%[7.34 µM] | -14%[7.34 µM]
> CCC(=O)Nc1c2c(nn1-c1ccccc1C)CSC2
→ -15% | -6%
> CCOC(=O)c1c(-c2cccs2)csc1NC(C)=O
→ -25% | -22%
> CCN1C(=S)SC(=O)C1=C1C=C(C)N(CCO)C(C)=C1
→ -1% | -17%
> COc1cc(/C=C/C(=O)O)cc(S(=O)(=O)Nc2ccccc2C(=O)NCc2ccco2)c1OC
→ i | -14%
> O=[N+]([O-])c1ccc(CS(=O)c2ccccc2)cc1 (configuration not stated)
→ i | -7%
> COc1cccc(CN2CCC2(C)C(=O)Nc2cccc(Oc3ccccc3)c2)c1OC (configuration not stated)
→ 10% | 1%

# Following part:
# Each structure is followed by: Vaccinia mCherry | VACV Venus inh
> COc1ccccc1/C=C/c1nc(C#N)c(NCc2ccccc2)o1
→ -11% | -9%
> O=C(O)CCN1C(=O)/C(=C/c2cn(-c3ccccc3)nc2-c2cccs2)SC1=S
→ -2% | 0%
> CS(=O)(=O)c1cnc2c(S(=O)(=O)c3ccccc3)cnn2c1N
→ -7% | -15%
> Cc1cc(C)c2c(-n3cccc3)c(C(=O)NCCc3ccccc3)sc2n1
→ -12% | -7%
> NC(=O)C1CCN(C(=O)c2cc(Cl)c3c(c2)OCCO3)CC1
→ -15% | -11%
> CCOC(=O)N1CCC(NC(=O)c2ccc3c(=O)n4c(nc3c2)CCCC4)CC1
→ -8% | -8%
> COc1ccccc1OCCNC(=O)CN1C(=O)NC2(CCCC2)C1=O
→ -7% | -3%
> COc1ccccc1CNC(=O)C1CCCC1
→ i | -6%
> CCOC(=O)C1=C(CC)Nc2ccccc2N=C1NC(=O)c1ccc(S(=O)(=O)N2CCOCC2)cc1
→ -12% | 0%
